Assay outcomes from PubChem.
Sa RN4220 lethal – growth inhibition of S. aureus RN4220, primary screen, OD600; 16 h; inhibition, % (test concentration not listed); 330,000 compounds, 0.33% hits; AID 1259311, 2017;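 active = z-score of -3 or lower and OD600 up to 0.18 on both plates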;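 also: plate controls were untreated cells for no effect and reference antibiotic for full effect; stock transfer was 100 nL into about 80 µL; one replicate is shown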
PrP 5UTR inh – inhibition of PrP 5' UTR reporter expression. cell-based PrP 5' UTR mRNA reporter, plate reader. inhibition, % (test concentration not listed). 340,000 compounds, 0.35% hits. AID 488862, 2010;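 active = every replicate at 50% or more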;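 also: 0 = median of the neutral control wells; tested in H4 reporter cells; numbers are from one replicate; inactives centre near -14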
Sa ugtP lethal – growth inhibition of ugtP-null S. aureus, primary screen, RN4220 ugtP deletion, OD600. 16 h; some inactives read as strong as hits. AID 1259309, 2017. growth inhibition, % (test concentration not listed). 330,000 compounds, 0.54% hits;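 active = z-score under -3 and OD600 up to 0.15 on both plates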;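 also: plate controls were untreated wells for no effect and antibiotic for full effect; wells of about 80 µL received 100 nL stock; the first replicate is given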
Autofluor counter – compound fluorescence in toxin protease inhibitor counterscreen; compound autofluorescence counterscreen, microsphere flow cytometry; stronger effect = higher value; fluorescence intensity (test concentration not listed); 360,000 compounds, 3.1% hits; AID 624483;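 active = at least 3 SD above the mean of all compounds, about 16000 in these data; inconclusive = too few beads counted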;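 also: 100 nL of 1 mM stock went into each well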
BJeLR viability – MLPCN primary cell-based screen for lethality selective to Ras in HRASV12 cells; BJeLR (HRASV12) viability, CellTiter-Glo ATP luminescence, 48 h; reference of the scale not given here; inhibition, % (concentration not given with the values); 300,000 compounds, 0.17% hits;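 active = replicate mean above 50%; inconclusive = above 50% but judged a plate artefact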;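 also: 50 nL library stock added to about 25 µL; numbers are from one replicate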
Mtb hypoxia rep – PubChem AID 1159583; M. tuberculosis hypoxia-regulated fluorescent reporter, fluorescence; fluorescence inhibition, % (test concentration not listed); 300,000 compounds, 0.1% hits;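 active = 35 to 45% if threefold the growth effect, above 45% if 1.5-fold the growth effect; inactive = the rest, general growth blockers included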;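 also: wells of about 50 µL received 100 nL stock; 0% = vehicle wells and 100% = reference inhibitor wells; whole bacteria with a GFP reporter of the hypoxia response; strong numbers were not always called active; many hits fall short of the cut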
Mtb hypoxia rep growth – second read-out of Mtb hypoxia rep, no call of its own (marks repeat the call); growth inhibition, %; measured here: M. tuberculosis growth (absorbance);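 0% = vehicle and 100% = reference antibiotic; read after six days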
* hit, by the source's call; u = inconclusive; x = no result given. Outcome played no part in choosing rows; overall some 4% were active at least once.

SMILES | Sa RN4220 lethal | PrP 5UTR inh | Sa ugtP lethal | Autofluor counter | BJeLR viability | Mtb hypoxia rep | Mtb hypoxia rep growth
CN1C(=O)/C(=C/c2ccccc2F)Sc2ccc(C(=O)NCC3CCCO3)cc21 (stereo not drawn) | 1.0 | 9 | -4 | 6316 | 0 | -1 | 8
O=C(O)C1(P(=O)(c2ccccc2)c2ccccc2)CCC1 | 6.1 | -2 | 2 | 2704 | -5 | x | x
COc1cccc(C=NNC(=O)c2[nH]nc3c2CCc2ccccc2-3)c1O | -3.9 | x | 15 | x | x | 7 | -3
Cc1ccc(Nc2nc3ccccc3n3cnnc23)c(Cl)c1 | -1.0 | -24 | -1 | 3747 | 4 | 5 | -2
CCN(CC)CCCn1c2c(c(SCC(=O)Nc3ccc(OC(F)(F)F)cc3)nc1=O)CCC2 | 0.1 | -10 | 5 | 8966 | 2 | 9 | 7
CCCNC(=O)c1ccc(S(=O)(=O)c2ccc(OC)cc2)c([N+](=O)[O-])c1 | 1.8 | 8 | 4 | 3624 | -2 | -8 | -6
Cc1ccc(-c2csc(N/N=C/c3ccco3)n2)c(C)c1 | x | -36 | x | 2120 | 16 | x | x
Nc1nonc1C(=O)NCCNC(=O)c1ccccc1F | 2.3 | -25 | 0 | 4513 | 1 | x | x
NC(=O)CC(NC(=O)c1ccccc1)c1ccc(NC2CCN(Cc3ccccc3)CC2)c([N+](=O)[O-])c1 (stereo not drawn) | -0.2 | -8 | -1 | 3535 | 4 | 7 | 8
CC1=NN(/C(=N/c2nnc(C)s2)Nc2ccccc2)[C@H](c2ccc(C)cc2)S1 | 2.1 | x | -2 | x | x | 13 | 8
C(=N\n1cnnc1)/c1ccc(-c2ccccc2)cc1 | x | 0 | x | 3094 | 10 | x | x
CCC1C(=O)NCCN1C(=O)c1ccc2nc(Cc3ccc(OC)cc3)oc2c1 (stereo not drawn) | -1.3 | 10 | -2 | 6066 | 4 | -6 | 7
O=C1c2cccc(OCC(=O)N3CCCc4ccccc43)c2CCN1Cc1ccc(F)cc1 | -2.4 | -9 | 6 | 3110 | -26 | 3 | 6
N/C(=N\OC(=O)Cc1cccs1)c1ccc([N+](=O)[O-])cc1 | x | -43 | x | 2160 | 1 | x | x
Cc1nc2cc(C(=O)O)ccc2s1 | 6.4 | -51 | 12 | 15665 | 0 | 4 | -1
CC(C)Cn1c(-c2cccnc2)nc2c1c(=O)[nH]c(=O)n2CC(C)C | 4.9 | -20 | 14 | 3015 | -5 | -7 | -8
CN1CCN(S(=O)(=O)c2ccc(NN)nc2)CC1 | 4.8 | 5 | 4 | 4677 | x | 9 | 9
CNC(=S)NN=Cc1ccc(C(C)C)cc1 | 9.4 | x | 6 | x | x | 9 | 7
COc1ccc2cc3cc(C(=O)N4CCCCCC4)oc3nc2c1 | 3.2 | -20 | 3 | 5249 | 11 | 10 | 4
CC(C)(C)CC(=O)Nc1ccccc1N1CCN(c2ccc(F)cc2)CC1 | 2.9 | 4 | 12 | 3516 | -11 | 7 | 3
Cc1ccc(CSC2=NCCN2C(=O)C2CC2)cc1 | -1.0 | -14 | 15 | 4272 | -3 | x | x
Cc1cccc(NC(=O)c2cc(S(=O)(=O)N3CCCCC3)c[nH]2)c1C | 5.1 | -23 | 7 | 5240 | 5 | 4 | 6
COc1cccc2sc(NNC(=O)C3=COCCO3)nc12 | 8.7 | -9 | 8 | 4517 | 14 | -8 | 3
O=C(Oc1ccc2c(=O)c(Cl)coc2c1)c1ccncc1 | -0.1 | -16 | 6 | 6195 | -13 | 4 | -3
CCCCOC(=O)Nc1ccccc1C(N)=O | 7.3 | -29 | -5 | 10813 | -14 | 1 | 0
SMILES | Sa RN4220 lethal | PrP 5UTR inh | Sa ugtP lethal | Autofluor counter | BJeLR viability | Mtb hypoxia rep | Mtb hypoxia rep growth
CN(C)/C=N/c1ncc(C(=O)c2ccc(Cl)cc2Cl)s1 | x | -27 | x | 4572 | 4 | x | x
O=C(c1cc(-c2cccnc2)nc2ccc(Br)cc12)N1CCN(c2ncccn2)CC1 | 5.1 | 6 | 5 | 2106 | -1 | x | x
CS(=O)(=NS(=O)(=O)c1ccc(Cl)cc1)c1ccccc1 (stereo not drawn) | 1.9 | 0 | 2 | 5059 | -6 | -5 | 9
Cc1nn(-c2ccccc2)c(C)c1/C=N/NC(=O)c1ccccc1O | x | -8 | x | 3079 | 11 | x | x
Cn1nc(C(=O)Nc2nc(-c3ccccn3)cs2)c2ccccc2c1=O | 10 | 14 | -5 | 3922 | x | -12 | -9
CCOc1ccc(-n2cc(C(=O)Nc3ccc(Cl)cn3)c3cc(OC)c(OC)cc3c2=O)cc1 | 2.0 | -30 | -3 | 3933 | -1 | 5 | 3
CCOc1ccc2c(c1)C(C)=CC(C)(C)N2C(=O)Nc1ccccc1 | 6.2 | -12 | 9 | u | 2 | 10 | -2
Cc1ccc(-n2ccnc(SCC(=O)NCCc3ccccc3)c2=O)cc1F | -3.7 | -10 | 3 | u | -5 | -2 | 1
Cc1nn(C)c(C(=O)N/N=C/c2ccc(C(F)(F)F)cc2)c1[N+](=O)[O-] | x | -18 | x | 10939 | 6 | x | x
CCCCN(CC)CCNC(=O)c1[nH]c(C)c(C(C)=O)c1C | 2.5 | -8 | 7 | 4153 | 1 | 4 | 2
COc1ccc(N2C(=O)CSC2c2ccccc2[N+](=O)[O-])cc1 (stereo not drawn) | 6.4 | -7 | 7 | 3459 | -7 | 10 | 8
CCOC(=O)N(C)c1ccc(C(O)(C(=O)OC)C(F)(F)F)cc1 (stereo not drawn) | -8.7 | -11 | -9 | 3228 | -5 | -4 | 7
Cc1cccc(C(=O)c2cn[nH]c2-c2ccc(C)cc2O)c1 | 3.8 | -14 | 15 | 3523 | -1 | 5 | 4
O=C1CSC(=Nc2ccccc2)N1Cc1ccccc1 | 3.6 | -6 | 10 | 2374 | 3 | 9 | 2
COC(=O)c1ccccc1N(C)S(=O)(=O)c1cc2c(cc1C)OCC(=O)N2 | 10 | -22 | -15 | 4701 | 4 | -7 | 1
COc1ccccc1CNCC(=O)Nc1ccc(N2CCOCC2)cc1 | -0.1 | -9 | 0 | 2794 | -5 | -1 | 3
COc1ccc(OC)c(C(C(=O)NC2CCCCC2)N(Cc2ccco2)C(=O)c2ccccn2)c1 (stereo not drawn) | 3.7 | -19 | 1 | 5033 | 3 | 12 | 7
O=C(CCCc1ccccc1)Nc1ccccc1C(F)(F)F | 1.3 | -20 | -1 | 3589 | -7 | -2 | -5
Cc1nn(Cc2ccc(Cl)cc2)c(C)c1NC(=O)c1cc(-c2ccco2)on1 | 1.0 | 1 | -7 | 8742 | 2 | 8 | 7
O=C(Nc1ccc(Br)cc1)C1CC(c2c(F)cccc2Cl)=NO1 (stereo not drawn) | x | -9 | x | 3170 | 3 | x | x
COc1ccc(NC(=O)CN(C)C(=O)Cc2c(C)nc3ccccc3c2C)cc1 | 1.7 | -14 | 3 | 5579 | 12 | 11 | 7
COC(=O)[C@@]1(C#N)[C@@H]2C=CC(C(C)=O)=CN2[C@@H](C(N)=O)[C@@H]1c1ccc(F)cc1 | 0.2 | -13 | 2 | 6446 | 0 | -8 | -8
O=C(COC(=O)C1CC(O)CN1S(=O)(=O)c1ccc(Cl)cc1)c1cccc(Cl)c1 (stereo not drawn) | 2.5 | -22 | 3 | 2503 | -7 | 11 | -3
CCCC(=O)C1C(=O)CC(CC(C)SCC)CC1=O (stereo not drawn) | -1.3 | -31 | -2 | 13737 | -7 | -4 | -2
CCOC(=O)c1ccc2nc(NC(C)=O)sc2c1 | 2.6 | -40 | -2 | 2337 | 2 | 8 | 12
SMILES | Sa RN4220 lethal | PrP 5UTR inh | Sa ugtP lethal | Autofluor counter | BJeLR viability | Mtb hypoxia rep | Mtb hypoxia rep growth
COc1ccc(C(=O)NCC(=O)NN=Cc2ccc(C)o2)cc1OC | 0.6 | x | 1 | x | x | 6 | 0
O=C(Nc1ccccc1F)C1CCCC1 | 3.3 | -10 | 10 | 3780 | -1 | 0 | -5
COC(=O)c1ccccc1S(=O)(=O)N1CCn2cccc2C1C (stereo not drawn) | 0.9 | -27 | 2 | 6850 | -8 | 14 | -3
COCCn1nnnc1SCC(=O)NCc1ccc2c(c1)OCO2 | -1.4 | -12 | 8 | 4082 | -3 | -1 | 5
CCCCCCN=Cc1c(O)n(C)c(=O)n(C)c1=O | 5.3 | -10 | 3 | 3896 | 0 | 6 | 7
Cc1ccc2oc(=O)c3cnn(CC(=O)NC4CCN(Cc5ccccc5)CC4)c3c2c1 | -6.7 | -10 | -6 | 6109 | -2 | 5 | 14
Cc1nc2sc(C(c3ccccc3)N3CCN(c4ccccc4F)CC3)c(O)n2n1 (stereo not drawn) | -2.7 | -33 | 5 | 4818 | -6 | x | x
COc1ccc(CC(=O)Nc2ccc(OC(C)=O)cc2C(=O)O)cc1 | 1.9 | -34 | 1 | 4436 | 0 | 10 | -1
Cc1ccc(NC(=O)CCCN2C(=O)/C(=C/C=C/c3ccccc3)SC2=S)cc1 | 0.7 | -4 | 1 | 2783 | -13 | 11 | 8
COc1ccc(-c2ccc(C)cc2)cc1C1C2C=CCC(C)C2C(=O)N1Cc1ccccc1 (stereo not drawn) | -4.4 | x | -1 | x | x | 9 | 10
Cc1cc(=O)oc2c(C)c(OCC(=O)NCCCN3CCCC3=O)ccc12 | 3.3 | 4 | 4 | 5316 | -14 | 0 | 7
CCC(CC)C(=O)Nc1nnc(S(=O)(=O)Nc2ccc(OC)cc2)s1 | 21 | 16 | -3 | 3454 | 0 | 4 | -1
CCOC(=O)C1CCN(S(=O)(=O)c2ccc3c(c2)N(C)C(=O)CC(=O)N3C)CC1 | 6.1 | 0 | 0 | 4894 | -12 | 17 | 8
CCOC(=O)c1cc2c(=O)n3cccc(C)c3nc2n(Cc2ccco2)c1=NC(=O)c1ccc(C)cc1 | 1.3 | -22 | 0 | u | x | 5 | -3
COc1ccc(CCN(C)Cc2nc(-c3cnccn3)no2)cc1OC | 8.2 | -12 | 5 | 3463 | -9 | 12 | 0
CCC1CCCCN1Cc1ccc(CNS(=O)(=O)c2ccc3c(c2)oc(=O)n3C)o1 (stereo not drawn) | 0.3 | -24 | 0 | 22053* | x | 9 | 7
COc1cccc2c1O/C(=N\O)C(C(=O)Nc1cccc(Br)c1)C2 (stereo not drawn) | x | -14 | x | 6408 | -3 | x | x
CCN(CC(=O)Nc1ccc(NC(C)=O)cc1)C(=O)c1cc2c(s1)CCCC2 | 9.2 | 0 | 2 | x | x | 5 | 2
O=S(=O)(c1ccc(Cl)cc1)N1CCN=C1SCc1ccc(Cl)c(Cl)c1 | 2.5 | -21 | 13 | 2061 | -15 | -3 | 6
Cc1ccc(Cl)cc1N1CCN(C(=O)c2noc(C(C)C)c2[N+](=O)[O-])CC1 | 21 | -5 | 11 | 5942 | 22 | -2 | 2
Cc1cc(NS(=O)(=O)c2ccc(NC(=O)/C=C/c3ccccc3)cc2)no1 | 13 | -10 | 24 | 2922 | -8 | 19 | 20
Cc1nc(N)c(Br)c(C)c1Br | 9.1 | -7 | 3 | 3250 | 1 | -12 | 1
Oc1[nH]c2ccccc2c1N=NC(=S)NCCc1ccccc1 | -4.2 | -16 | -20 | 2404 | 6 | 0 | 6
Cc1cc(F)ccc1NC(=O)C1CSC2(C)CCC(=O)N12 (stereo not drawn) | 2.1 | -21 | -1 | u | -5 | -1 | -12
COC(=O)c1[nH]c2ccccc2c1NC(=O)CN1CCCc2ccccc21 | 5.2 | -15 | -22 | 6957 | -2 | -2 | 4
CC(=NNC(=O)CN1CCN(S(=O)(=O)c2ccc(Br)cc2)CC1)c1cccnc1 | 5.6 | x | 1 | x | x | 8 | 11
CCc1nn(CC(=O)N2CCC(C)CC2)c(=O)c2cccn12 | 3.2 | -13 | -1 | 5760 | -3 | 0 | -5

Whole records, quoted from the list:
`Cc1ccc(Cl)cc1N1CCN(C(=O)c2noc(C(C)C)c2[N+](=O)[O-])CC1` in the list: Sa RN4220 lethal = 21; PrP 5UTR inh = -5; Sa ugtP lethal = 11; Autofluor counter = 5942; BJeLR viability = 22; Mtb hypoxia rep = -2; Mtb hypoxia rep growth = 2
`COc1ccc(CC(=O)Nc2ccc(OC(C)=O)cc2C(=O)O)cc1` in the list: Sa RN4220 lethal = 1.9; PrP 5UTR inh = -34; Sa ugtP lethal = 1; Autofluor counter = 4436; BJeLR viability = 0; Mtb hypoxia rep = 10; Mtb hypoxia rep growth = -1
